S1P4 agonist – agonists of human S1P4 receptor. activation, % at 4.98 µM. AID 1509. S1P4-expressing cell line, agonist reporter assay. O95977. actives 0.35% (n = 220,000); in the data active means activation above about 11%;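 further: 0% = DMSO vehicle and 100% = reference agonist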
Target sequence (O95977 whole entry, looked up): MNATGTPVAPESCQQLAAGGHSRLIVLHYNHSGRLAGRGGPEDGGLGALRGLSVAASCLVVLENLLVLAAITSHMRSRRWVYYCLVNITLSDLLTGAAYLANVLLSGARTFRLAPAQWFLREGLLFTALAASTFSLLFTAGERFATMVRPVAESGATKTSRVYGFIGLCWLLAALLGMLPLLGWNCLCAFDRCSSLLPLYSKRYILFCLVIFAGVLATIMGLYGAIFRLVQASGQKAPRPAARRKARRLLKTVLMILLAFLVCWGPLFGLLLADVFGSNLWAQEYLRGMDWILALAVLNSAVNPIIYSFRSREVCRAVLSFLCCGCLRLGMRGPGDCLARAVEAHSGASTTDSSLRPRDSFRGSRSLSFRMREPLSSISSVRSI
BaF3 parental – parental Ba/F3 viability inhibition as JAK2V617F counter-screen | actives 1.1% (n = 220,000) | inhibition, % at 5.6 µM | CellTiter-Glo ATP luminescence;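 active means inhibition above a per-campaign cutoff, the mean inhibition of all tested compounds plus 3 SD, cut at about 27% in these data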;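 further: 0% = DMSO wells and 100% = JAK Inhibitor I control wells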
NPY1 pot ag – potentiators or agonists of human neuropeptide Y receptor Y1; actives 0.37% (n = 220,000); activation, % at 3.6 µM; NPY-Y1 expressing cells, potentiator/agonist activation; in the data active means activation above about 33%, passing the limit was not always enough;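 further: cells stimulated with NPY at EC10 then isoproterenol at EC100; 0% = low agonist plus stimulus and 100% = saturating agonist plus stimulus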
Target sequence (P25929 whole entry, looked up): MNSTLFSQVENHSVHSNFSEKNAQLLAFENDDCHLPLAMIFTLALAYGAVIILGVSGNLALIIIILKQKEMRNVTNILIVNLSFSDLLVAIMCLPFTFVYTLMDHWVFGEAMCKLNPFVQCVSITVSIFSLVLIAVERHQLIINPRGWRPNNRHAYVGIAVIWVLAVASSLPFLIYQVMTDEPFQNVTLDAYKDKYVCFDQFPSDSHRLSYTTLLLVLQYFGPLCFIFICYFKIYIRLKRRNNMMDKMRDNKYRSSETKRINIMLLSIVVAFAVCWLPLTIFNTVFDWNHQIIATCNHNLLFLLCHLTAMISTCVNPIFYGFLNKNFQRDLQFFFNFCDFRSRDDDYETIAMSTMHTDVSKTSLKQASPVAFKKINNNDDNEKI
NPY Y1 blocker – NPY-Y1 (human) receptor antagonism; P25929; actives 1% (n = 200,000); inhibition, % at 3.6 µM; HEK293-CNG Y1 cells, membrane potential fluorescence; NPY at EC95, then isoproterenol;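 active means inhibition above the campaign mean inhibition of all tested compounds plus 3 SD, cut at about 20% in these data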;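 further: 0% = DMSO wells given NPY plus isoproterenol and 100% = isoproterenol alone without NPY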
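Test system: HEK293 cells co-expressing NPY Y1 receptor and cyclic-nucleotide gated channel; Also added: NPY (25 nM), isoproterenol (1 µM), Ro 20-1724 (25 µM); Compound dosing: one concentration, 3.6 µM, in 0.4% DMSO; Timing: dye 3 h, compound 60 min room temperature, stimulation 45 min; Technique: Membrane-potential fluorescent dye readout.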
RBBP9 inhibitor – blocks human serine hydrolase RBBP9; O75884; recombinant RBBP9, FP-Rh probe fluorescence polarization; inhibition, % at 7.94 µM; actives 0.2% (n = 220,000); AID 1515;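 active means inhibition above the campaign mean of all tested compounds plus 3 SD, cut at about 14% in these data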;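 further: plate controls were DMSO wells with RBBP9 for no effect and wells lacking RBBP9 protein for full effect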
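Measured by: FP readout at 525/598 nm; material: recombinant human RBBP9; also added: Serine-hydrolase probe FP-Rh, 375 nM pre-mixing; medium: Tris buffer pH 8.0, NaCl, Pluronic; replication: one well per compound; doses: one concentration, 7.94 µM nominal, 0.794% DMSO; timing: preincubation 30 min plus labeling 45 min at 25 °C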
Ba/F3 V617F tox – loss of viability in JAK2V617F-driven Ba/F3 cells; actives 1.1% (n = 220,000); inhibition, % at 5.6 µM; Ba/F3 EpoR-JAK2V617F viability, ATP luminescence;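 active means inhibition above the campaign mean plus 3 SD over all tested compounds, cut at about 24% in these data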;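 further: cytokine-independent growth of Ba/F3 cells driven by EpoR plus mutant JAK2; 0% = DMSO-treated cells and 100% = JAK inhibitor I control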
S1P4 antag – antagonists of human S1P4 receptor. inhibition, % at 4.98 µM. S1P4-expressing cells, antagonist mode, reporter read-out. actives 0.26% (n = 220,000). O95977; in the data active means inhibition above about 29%;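 further: 0% = wells stimulated with agonist and 100% = vehicle wells without agonist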
NPY-Y2 PAM-ag – potentiates or activates human NPY-Y2 receptor. AID 1359. activation, % at 3.6 µM. actives 0.45% (n = 220,000). cells expressing NPY-Y2, potentiator/agonist read-out. P49146; in the data active means activation above about 27%;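 further: cells stimulated with NPY near EC25 plus isoproterenol at EC100; 0% = vehicle plus submaximal agonist and 100% = vehicle plus saturating agonist; some results beyond the cut were filed as inactive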
* hit, by the source's call. Only part of the results is shown. The share of hits here may be higher or lower than overall.

Structure,S1P4 agonist,BaF3 parental,NPY1 pot ag,NPY Y1 blocker,RBBP9 inhibitor,Ba/F3 V617F tox,S1P4 antag,NPY-Y2 PAM-ag
Cc1cc(/C=C(/C#N)C(=O)Nc2ccccc2)c(C)n1-c1cccnc1,0.6,9.7,28.9,-1.1,-11.0,0.0,-14.5,-3.1
FC(F)(F)c1cccc(Oc2nc(-c3ccccc3)nnc2C(F)(F)F)c1,-3.7,6.5,22.9,1.4,-8.0,4.0,1.2,-3.7
Cc1ccc(C(CC(=O)c2ccco2)SCCO)cc1 (configuration not stated),-1.0,4.8,-3.7,-11.5,2.5,-0.3,13.1,11.7
CCOC(=O)c1cc2c(=O)n3cccc(C)c3nc2n(Cc2ccco2)c1=NC(=O)c1ccccc1,1.6,7.1,12.5,-5.3,-9.5,-0.7,-19.7,9.6
CCOC(=O)C(C(=O)N(C)C)c1ncc(C(F)(F)F)cc1Cl (configuration not stated),-1.4,8.4,-13.7,2.0,-1.7,-3.0,-0.8,10.4
O=C(NCc1cccnc1)C1CC2c3ccccc3C1c1ccccc12 (configuration not stated),0.1,-0.5,-5.5,0.6,-8.8,-3.6,-6.0,10.7
CC(=O)Nc1ccc(OCC(O)Cn2c3ccccc3c3ccccc32)c(C)c1 (configuration not stated),-1.2,3.0,8.9,-7.5,-8.8,0.7,1.7,8.4
O=C(Nc1ccc(-c2nc3ccccc3o2)cc1)c1cccnc1,-0.6,7.9,11.8,6.8,-3.6,-1.1,-13.2,10.5

Of the compounds above, these have four or more nitrogen atoms.
Structure,S1P4 agonist,BaF3 parental,NPY1 pot ag,NPY Y1 blocker,RBBP9 inhibitor,Ba/F3 V617F tox,S1P4 antag,NPY-Y2 PAM-ag
Cc1cc(/C=C(/C#N)C(=O)Nc2ccccc2)c(C)n1-c1cccnc1,0.6,9.7,28.9,-1.1,-11.0,0.0,-14.5,-3.1
CCOC(=O)c1cc2c(=O)n3cccc(C)c3nc2n(Cc2ccco2)c1=NC(=O)c1ccccc1,1.6,7.1,12.5,-5.3,-9.5,-0.7,-19.7,9.6

(list continues)
Structure,S1P4 agonist,BaF3 parental,NPY1 pot ag,NPY Y1 blocker,RBBP9 inhibitor,Ba/F3 V617F tox,S1P4 antag,NPY-Y2 PAM-ag
Cc1ccc(NS(=O)(=O)c2cc(C(=O)NCc3ccccn3)ccc2Cl)cc1C,1.0,4.0,-3.6,6.1,-7.4,1.6,-1.2,-4.9
Cc1nn(Cc2c(Cl)cccc2Cl)c(C)c1NC(=O)c1cn(-c2ccccc2)nc1-c1ccccc1,0.4,6.9,14.7,-0.5,-6.6,-4.1,-13.2,4.4
CCOc1cc(/C=N/n2cnnc2)ccc1OC(=O)c1cccc([N+](=O)[O-])c1,1.4,-1.0,4.6,-4.7,3.2,-5.1,-15.3,13.7
COc1cccc(NC(=O)c2oc3ccccc3c2NC(C)=O)c1,-3.2,4.0,-28.4,2.3,-8.1,5.5,-2.7,-6.8
CC(C)CC(=O)N(c1ccc(F)cc1)C1C=CS(=O)(=O)C1 (configuration not stated),1.9,1.6,-0.7,3.4,-5.6,-3.5,-0.5,0.5
CN(CC(=O)NCc1ccc(F)cc1)S(=O)(=O)c1cccc2nsnc12,2.1,-0.2,0.8,5.7,-8.2,1.4,-15.5,-10.9
COc1ccc(C)cc1NC1=C(Cl)C(=O)N(C2CCCCC2)C1=O,0.7,-1.1,-37.8,5.1,-2.2,-6.4,0.9,-1.8
CCSc1nnc(-c2sc3nnc(-c4ccccc4)c(-c4ccccc4)c3c2N)o1,-1.0,4.2,18.5,0.6,-2.1,-1.2,6.2,5.0

(continued)
Structure,S1P4 agonist,BaF3 parental,NPY1 pot ag,NPY Y1 blocker,RBBP9 inhibitor,Ba/F3 V617F tox,S1P4 antag,NPY-Y2 PAM-ag
CC1(C)CC(=O)C(C(c2ccco2)C2C(=O)CC(C)(C)CC2=O)C(=O)C1,-1.1,-0.2,-3.0,3.2,-10.2,-0.1,2.9,-10.6
CC(C)(C)c1nc(SCC(=O)Nc2ccc3c(c2)OCCO3)c2ccccc2n1,-2.9,4.4,-8.4,-3.2,1.8,4.6,-9.1,4.1
COc1cc(CNC2CCCC2)cc(Cl)c1OCc1ccccc1Cl,7.2,9.2,-17.0,-5.3,-2.9,2.5,-9.9,-5.1
O=C1CC(N2CCN(c3nc4ccccc4s3)CC2)C(=O)N1c1cccc(F)c1 (configuration not stated),0.1,3.2,11.0,4.6,-5.9,-3.5,-10.9,-2.8
Fc1cccc(CN2CCCCCCC2)c1,0.5,2.0,7.4,-4.0,-7.2,-3.0,-12.5,-3.1
CC(C)(C)NC(=O)C1Cc2ccccc2CN1C(=O)Nc1ccccc1Cl (configuration not stated),-1.0,0.3,-1.1,1.2,-5.5,0.9,3.8,-4.8
NC(=O)c1ccc(NC(=O)C2CCCO2)cc1 (configuration not stated),-1.2,1.7,-17.8,0.7,-9.8,-1.1,-11.3,-7.7
COc1ccccc1-c1nnc2n1N=C(c1ccc(O)c(O)c1)CS2,-0.3,91.9*,0.0,5.5,-0.6,95.0*,-7.5,-19.0

Additional records
Structure,S1P4 agonist,BaF3 parental,NPY1 pot ag,NPY Y1 blocker,RBBP9 inhibitor,Ba/F3 V617F tox,S1P4 antag,NPY-Y2 PAM-ag
CC(C)CN(CC(C)C)S(=O)(=O)N1CCC(C(=O)NCc2ccc(F)cc2)CC1,-1.0,7.0,-4.0,-0.9,-6.7,5.1,-11.0,-22.3
O=C1CSC(c2ccccn2)N1c1ccccc1 (configuration not stated),0.2,5.2,-12.8,-0.2,0.1,-0.8,-7.8,-5.2
Cc1ccc(C(=O)COc2ccccc2C(=O)Nc2ccccc2)cc1,1.0,5.5,-6.1,6.0,1.3,8.0,2.0,-7.7
C=CCn1c(SCC(=O)N2CC(=O)Nc3ccccc32)nc2scc(-c3ccccc3)c2c1=O,-3.4,8.7,31.5,-2.9,-3.9,-0.7,-22.9,5.7
O=C(NCC1CCCO1)c1cccc(F)c1 (configuration not stated),2.2,4.5,18.9,6.5,-3.9,-1.1,-4.8,-5.6

Sorted by formula weight (smallest number first): some entries from above
Structure,S1P4 agonist,BaF3 parental,NPY1 pot ag,NPY Y1 blocker,RBBP9 inhibitor,Ba/F3 V617F tox,S1P4 antag,NPY-Y2 PAM-ag
NC(=O)c1ccc(NC(=O)C2CCCO2)cc1 (configuration not stated),-1.2,1.7,-17.8,0.7,-9.8,-1.1,-11.3,-7.7
CCOc1cc(/C=N/n2cnnc2)ccc1OC(=O)c1cccc([N+](=O)[O-])c1,1.4,-1.0,4.6,-4.7,3.2,-5.1,-15.3,13.7
CN(CC(=O)NCc1ccc(F)cc1)S(=O)(=O)c1cccc2nsnc12,2.1,-0.2,0.8,5.7,-8.2,1.4,-15.5,-10.9
CC(C)(C)c1nc(SCC(=O)Nc2ccc3c(c2)OCCO3)c2ccccc2n1,-2.9,4.4,-8.4,-3.2,1.8,4.6,-9.1,4.1
C=CCn1c(SCC(=O)N2CC(=O)Nc3ccccc32)nc2scc(-c3ccccc3)c2c1=O,-3.4,8.7,31.5,-2.9,-3.9,-0.7,-22.9,5.7
Cc1nn(Cc2c(Cl)cccc2Cl)c(C)c1NC(=O)c1cn(-c2ccccc2)nc1-c1ccccc1,0.4,6.9,14.7,-0.5,-6.6,-4.1,-13.2,4.4
